# Screens as filed in PubChem.
# TRPML1 blocker – qHTS for Inhibitors of the Human Mucolipin Transient Receptor Potential 1 (TRPML1) | Mucolipin-1 (Homo sapiens), Q9GZU1 | TRPML1-inducible cells, Ca2+ dye fluorescence, FDSS; stronger effect = lower value; inhibition of EC80 agonist-evoked calcium signal | activity change, negative = inhibition, % (concentration not given with the values) | 0.02% of 390,000 active | AID 624415, 2012; in the data active means activity change below about -50%; inconclusive means about -30% to -50%; inactive means above about -30%;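 further: stimulus is agonist 54-4 at its EC80 concentration; on the % scale 0 is the no-effect control and ±100 the full control effect; compound concentration not given in the record; the text of the record puts the active cut at -80%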
# Target sequence (Q9GZU1 whole entry, looked up): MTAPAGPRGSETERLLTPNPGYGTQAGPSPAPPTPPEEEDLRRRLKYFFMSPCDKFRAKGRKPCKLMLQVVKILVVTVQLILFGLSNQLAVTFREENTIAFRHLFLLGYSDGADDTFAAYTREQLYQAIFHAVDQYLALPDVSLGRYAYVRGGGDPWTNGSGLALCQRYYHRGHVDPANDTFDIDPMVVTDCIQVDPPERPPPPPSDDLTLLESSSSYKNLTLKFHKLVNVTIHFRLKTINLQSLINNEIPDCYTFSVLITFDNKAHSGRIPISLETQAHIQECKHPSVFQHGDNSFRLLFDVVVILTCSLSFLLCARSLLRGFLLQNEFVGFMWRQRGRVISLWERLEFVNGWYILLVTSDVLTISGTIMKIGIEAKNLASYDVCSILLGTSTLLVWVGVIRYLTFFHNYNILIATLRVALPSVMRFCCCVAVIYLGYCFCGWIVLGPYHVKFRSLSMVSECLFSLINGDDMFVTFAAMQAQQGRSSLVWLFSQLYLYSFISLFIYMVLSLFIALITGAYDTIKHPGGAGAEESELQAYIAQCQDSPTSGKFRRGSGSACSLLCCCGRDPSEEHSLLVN
#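 Tet-induced TRPML1-DL cells loaded with Ca8 no-wash calcium dye were read kinetically on FDSS. Compound addition was followed by EC80 agonist 54-4 (4 uM final); inhibition was read over 110 s.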
# gsp agonist – qHTS for Agonist of gsp, the Etiologic Mutation Responsible for Fibrous Dysplasia/McCune-Albright Syndrome: qHTS. gsp mutant cells, cAMP HTRF, 30 min; control for the full effect not named in the record. 0.13% of 340,000 active. Potency, µM (top dose mostly 76.9 µM), for the others: at the top dose activation (cAMP increase), usual class: activators; active = well fitted activation curve with a large enough effect; inconclusive = small, poorly fitted or top-dose-only effect, or another doubt; inactive = no such curve, though single readings can be large or run the other way; cell line not stated here;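 further: phosphodiesterase inhibitor Ro 20-1724 added with compounds to block cAMP breakdown; potency means the concentration at half of the fitted maximal effect; nearly all actives have a fitted effect of over 60% in size; about a fifth of the inactives were tested at one dose only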
#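 Cells stably selected in G418 were plated at 2000/well, grown 16-24 hr, then given compounds in DMSO with the PDE inhibitor […] (300 uM solution added) for 30 min at 37C; cAMP was read by HTRF.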
# gsp antag – qHTS for Antagonists of gsp, the Etiologic Mutation Responsible for Fibrous Dysplasia/McCune-Albright Syndrome: qHTS; AID 624288, 2012; Potency, µM (titrated, usually from 76.9 µM), for the others: at the top dose activity change, negative = inhibition, actives largely listed as inhibitors; gsp-mutant cells, cAMP HTRF, 30 min; control for the full effect not named in the record; 0.4% of 340,000 active; active = falling curve of any shape with a large fitted effect; inconclusive = falling curve, mostly with a smaller effect; inactive = flat or rising curve; cell line not stated here;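 further: intracellular cAMP measured with PDE inhibitor Ro 20-1724 present during compound exposure; potency means the concentration at half of the fitted maximal effect; on the % scale 0 is the no-effect control and ±100 the full control effect; nearly all actives have a fitted effect of over 65% in size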
#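 Measurement of cellular cAMP by homogeneous time-resolved fluorescence following a 30 min compound exposure at 37C. The PDE inhibitor […] was present throughout; the assay buffer was DPBS with 0.05% BSA and 0.005% Tween 20.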
# Sfp inh – qHTS Assay for Inhibitors of Bacillus subtilis Sfp phosphopantetheinyl transferase (PPTase); 4'-phosphopantetheinyl transferase ffp (Bacillus subtilis), Q9F4F7; Biochemical Sfp PPTase activity, qHTS; Potency, µM, for the others: max response, negative = inhibition, usual class: inhibitors; 3.5% of 310,000 active; active means well fitted inhibition curve with a large enough effect; inconclusive means small, poorly fitted or top-dose-only effect, or another doubt; inactive means no such curve, though single readings can be large or run the other way;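 further: the enzyme is Sfp with the accession as filed and its product quenches rhodamine fluorescence; potency means the concentration at half of the fitted maximal effect; 0% = enzyme reaction without inhibitor and -100% = no enzyme wells; top concentration of the series not given in the record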
#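 With Hepes-Na pH 7.6 buffer containing 10 mM MgCl2, Sfp (15 nM) modified BHQ-2-YbbR (12.5 uM) using rhodamine-CoA (5 uM). Two reads 30 minutes apart at 525/598 nm yielded each well's rate.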
# TRPV1 potentiator – HTS Assay for Compounds that Act as Potentiators of the Vanilloid Receptor 1; Transient receptor potential cation channel subfamily V member 1 (Homo sapiens), Q8NER1; TRPV1-expressing cells, Fluo-8 calcium influx, capsaicin EC20 potentiation; host cell line not named in the record; control for the full effect not named in the record; potentiation, % at 8.33 µM; 0.02% of 320,000 active; AID 540277, 2011; active means potentiation above 80%; inconclusive means 30% to 80%; inactive means below 30%; further: 0% is about no effect
#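 Cells expressing TRPV1 were dye-loaded with Fluo-8 and read kinetically: 10 s baseline, 3 min after compound (agonist portion), then 2 min after EC20 capsaicin (allosteric enhancer portion). Calcium-bound dye fluorescence at 480/520 nm.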
# ClpP mod – qHTS Assay for Activators of ClpP; ATP-dependent Clp protease proteolytic subunit (Bacillus subtilis (strain 168)), P80244; purified B. subtilis ClpP, FRET peptide cleavage, 20 min; Potency, µM (titrated, usually from 57.5 µM), for inactives: top-dose activity change, negative = active; 1.9% of 340,000 active; AID 651965, 2013; active = well fitted falling curve with a large enough effect; inconclusive = small, poorly fitted or top-dose-only effect; inactive = no such curve, though single readings can be large or run the other way; further: potency means the concentration at half of the fitted maximal effect; the source files actives as falling curves though it sought activators and does not explain the sign; nearly all actives have a fitted effect of over 65% in size; many hits overshoot -100%
# Target sequence (P80244 whole entry, looked up): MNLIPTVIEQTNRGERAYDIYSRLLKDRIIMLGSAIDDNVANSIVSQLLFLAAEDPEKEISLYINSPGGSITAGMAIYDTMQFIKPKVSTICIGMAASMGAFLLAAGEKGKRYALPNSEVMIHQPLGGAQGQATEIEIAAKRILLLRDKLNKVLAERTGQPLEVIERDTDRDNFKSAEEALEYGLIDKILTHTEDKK
#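 Buffer: 100 mM Tris/HCl pH8, 100 mM KCl, 0.05% low protease BSA, 2.5% glycerol, 0.01% Tween-20. ClpP 10 microg/mL final; 20 min RT; delta FRET normalized to ADEP and DMSO controls.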
# Menin MLL FP FL – qHTS Assay for Inhibitors Targeting the Menin-MLL Interaction in MLL Related Leukemias: Competition With Fluorescein Labeled MLL-derived Peptide | Fluorescence polarization, fluorescein-MLL peptide displacement from menin | 290,000 tested, under 10 active | AID 1766, 2009 | FP activity change, % at 61.4 µM; inconclusive = falling polarisation curve, or a change in total fluorescence; inactive = total fluorescence flat and polarisation flat or rising; no compound was filed as active; the % refers to the polarisation; negative = inhibition;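 further: % of control where 0% means no effect; inhibitors lower the polarisation; unlabelled MLL peptide was the positive control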
# Numbers without * were called inactive; ? = inconclusive; . = no result given; & = joins results of further samples; [ ] = remark or other dose. Hits appear at their usual frequency. Share with any hit: about 4.9%.
SMILES,TRPML1 blocker,gsp agonist,gsp antag,Sfp inh,TRPV1 potentiator,ClpP mod,Menin MLL FP FL
CN(C)C(=O)c1ccc(NC(=O)c2cncc(Br)c2)cc1,-10.0,17.1%,6.1%,35.0%[activator],4.9,-0.8%,2.0
COC(=O)c1ccc(/C=N/OCC(=O)NC2CCCCCCC2)cc1,-3.0,0.0%,-33.3%,-5.9%,3.5,0.4%,-0.4
Cc1ccc(C2CC(c3ccc(Cl)cc3)=NNC2=O)cc1 (centres undefined),6.4,-77.5%[inhibitor],2.8%,-16.6%,-3.1,1.6%,2.2
Cc1cccc(N2CCN(C(=O)c3ccc4c(c3)c(C)c(C)n4C)CC2C)c1 (centres undefined),34.0&54.4,?,-15.4%,-17.0%,-3.3,-3.1%&-5.5%,.
COC(=O)[C@@]1(Cc2ccccc2)[C@H]2C(=O)N(Cc3ccccc3)C(=O)[C@H]2[C@H]2CN=C(SCC3CC3)N21,45.1,.,-19.3%,.,.,1.6%,.
C/C(=N\Nc1nccnc1Cl)c1c(F)c(F)c(F)c(F)c1F,16.7,-15.4%,13.3%,-6.0%,-1.1,.,-1.8
COCCNC(=O)C(c1cccs1)N(Cc1cccs1)C(=O)Cn1nnc2ccccc21 (centres undefined),3.5,-24.5%,-4.9%,3.9%,-46.3,1.0%,-2.1
O=C(NC(=S)Nc1ccc([N+](=O)[O-])cc1O)C1CCCCC1,-2.4,-37.9%[inhibitor],?,1.2%,6.1,-2.8%,.
Cc1ccc(SCc2[nH]nc3c2C2(C(=O)N(C)c4ccccc42)C(C#N)=C(N)O3)cc1 (centres undefined),3.9,-33.3%,-1.4%,-11.2%,-2.0,1.0%,0.3
Cc1ccc2c(c1)-c1[nH]c(=S)ncc1CS2,-1.4,-6.4%,4.5%,6.2%,-6.1,4.1%,-3.3
Cc1cc(Br)ccc1OCC(=O)NNC(=O)Cc1ccccc1,7.3,0.3%,2.1%,-7.9%,-23.7,-2.1%,-5.8
COc1ccc(NC(=O)C23CC4CC(C2)CC(n2cnc(Br)n2)(C4)C3)c(OC)c1,-1.4,-2.3%,13.6%,0.8%,6.7,2.3%,6.4
COc1ccnc(N=CNOCc2cccc(C(F)(F)F)c2)c1C#N,0.4,-3.7%[15.4 µM],-9.9%,-4.1%,-4.8,.,3.6
Cc1ccc(NC(=O)C(C)OC(=O)/C=C/c2ccccc2)cc1S(=O)(=O)N1CCOCC1 (centres undefined),1.5,-1.0%[15.4 µM],-12.3%,.,14.8,.,.
CCN(CCNC(=O)c1ccc(CSc2nc3ccncc3[nH]2)cc1)c1ccccc1,8.0,-233.3%[inhibitor],-6.1%,2.2%,-6.2,1.2%,?
O=S(=O)(c1ccccc1)N1CCC(O)(CSc2ccccc2)CC1,-17.0,?,-5.8%,0.3%,?,.,-2.0
CCOC(=O)c1c(O)c2c(n(Cc3ccco3)c1=O)CCCC2,-1.7,?,-20.7%,-5.9%,-5.3,14.8%,1.6
O=C1NCCN1c1ccc(CN2CCN(C3CCCCC3)C(CCO)C2)cc1 (centres undefined),-4.4,-18.5%[15.4 µM],2.7%,6.2%,7.0,-4.8%,0.3
COc1cc(C(CC(=O)N2CCOCC2)c2c(OC)cc(OC)c3ccc(=O)oc23)cc(OC)c1OC (centres undefined),-9.7,.,0.6%,9.7%,14.3,-8.8%,-0.3
CC1CC(C)CN(C(=O)COC(=O)Cc2ccc(Cl)cc2)C1 (centres undefined),-8.8,2.0%[15.4 µM],3.7%,4.9%,4.8,-1.0%,1.6
C=CCC(NC(=O)c1ccc(C#N)cc1)C(=O)NCCC (centres undefined),-11.3,.,10.3%,.,-1.4,-3.5%,.
Cc1c(/C=C/C(=O)c2cccs2)cnn1C,-11.3,-30.5%,-0.6%,13.3%,3.9,?,2.2
O=C(O)c1ccccc1C(=O)Nc1nc(-c2ccc3ccccc3c2)cs1,40.6,3.3%,-6.0%,7.4%,-2.8,0.3%,.
O=[N+]([O-])c1ccc(-c2ccn[nH]2)o1,20.5,-1.3%[15.4 µM],-9.9%,-3.0%,-3.9,.,0.8
Oc1ccc(-c2nc3ccccc3nc2-c2ccccc2)cc1,10.3,8.3%,-4.5%,9.3%,10.2,.,2.8
O=C(NCCC(=O)N1CCN(C(=O)c2ccco2)CC1)c1ccc(Br)cc1,-2.6,-1.9%,4.5%,.,-2.2,-3.1%,.
O=C(O)c1ccccc1N=Nc1c(O)[nH]c2ccc([N+](=O)[O-])cc12,8.8,20.3%,-6.0%,-16.4%,5.0,.,3.9
O=C(CCN1C(=O)c2ccc([N+](=O)[O-])cc2C1=O)Nc1ccc(O)cc1C(=O)O,-2.1,-5.6%[15.4 µM],.,?,?,.,1.8
CCOc1ccc(CN2CCNC(=O)C2CC(=O)NCCCOc2cccnc2)cc1 (centres undefined),-7.0,?,-4.8%,4.4%,-1.3,-0.8%,-9.7
CCCCn1c(N)c(N(CC(C)C)C(=O)c2ccc(C)o2)c(=O)[nH]c1=O,17.2,0.3%,4.7%,.,10.2,-2.2%,.
Cn1c(=O)[nH]c(=O)c2c1nc1n2CCCN1CCc1ccccc1,?,-29.7%,-8.9%,-1.1%,?,-1.5%,-0.4
CC1COc2ccccc2N1C(=O)c1ccccc1Cl (centres undefined),1.6,1.6%,0.7%,2.7%,-14.2,.,-6.4
COc1ccc(C(=O)NC(=S)Nc2cccc(S(=O)(=O)N3CCOCC3)c2)cc1,-0.9,10.8%[15.4 µM],3.5%,8.4%,-4.2,-1.2%,0.8
CCOC(=O)C1(CCc2ccccc2)CCN(Cc2c(O)cccc2OC)CC1,0.7,-10.0%[15.4 µM],0.3%,12.2%,4.3,-8.5%,3.3
COC(=O)c1cnn2c(C(F)(F)F)cc(-c3ccc(F)cc3)nc12,5.6,10.7%,-9.9%,27.8%,8.4,-2.1%,0.2
O=C(Nc1ccc(F)cc1F)c1c(C(F)(F)F)ccnc1Oc1ccc(Cl)cc1,-11.2,-2.1%[15.4 µM],3.5%,14.6%,.,.,-1.7
CCN(CC)S(=O)(=O)c1ccc(N2CCOCC2)c(NC(=O)C2CC2)c1,-4.9,-1.3%[15.4 µM],-17.8%,.,4.3,.,.
NCc1cc2c3c(c1)CCCN3CCC2,-4.1,-33.8%[inhibitor],9.5%,-3.0%,-13.6,.,7.1
O=S(=O)(c1cccs1)N1CCN(S(=O)(=O)c2cccs2)CC1,-5.6,-4.7%[15.4 µM],20.4%,19.5%,0.9,.,5.1
COc1cccc(-c2c(C(=O)N/N=C/c3ccc(C)o3)nnn2-c2nonc2N)c1,-20.1,11.2%,-17.2%,-13.5%,1.9,-4.1%,8.4
O=C(c1cccc2ccccc12)N1CCN(c2ccccc2F)CC1,7.6,30.2%,0.4%,-8.8%,-8.8,1.7%,-0.3
O=C(CSc1nnc(SCC(=O)c2ccco2)s1)c1ccco1,0.0,9.1%,2.5%,14.1µM*,-23.3,-2.4%,6.7
COc1ccc(CN2CCNC(=O)C2CC(=O)NCCc2cnccn2)cc1C (centres undefined),10.1,1.9%,9.7%,7.9%,-3.2,0.5%,-9.1
COc1ccc(OCC(O)CN2CCN(c3ncccn3)CC2)cc1 (centres undefined),4.4,-13.4%,3.1%,-6.8%,-20.5,1.1%,0.8
Cc1cc(N2CCOCC2)nc(-c2ccc(Br)cc2)n1,14.7,-1.5%,?,7.7%,-21.7,-7.9%,3.7
CNC(=O)C[C@H]1C(=O)N(CCc2ccccc2)C[C@@H]1C,38.6,16.2%,.,.,.,2.5%,.
CCOC(=O)c1ccc(NC2=CC(=O)C(=O)c3ccccc32)cc1,8.6,10.9%,-5.7%,50.1µM*,-10.6,6.2%,5.1
COc1ccc(CNC(=O)C2CSC(=O)C2)cc1 (centres undefined),-8.5,-18.6%,-7.7%,20.2%,-13.4,1.1%,1.9
CCCCCn1c(C)c2c(OCC)cccc(=O)c2c1C,-11.7,?,-16.2%,-17.5%,-5.6,-1.2%,?
COc1ccc(-n2nnc3c(=O)n(CC(=O)N4CCCC4)cnc32)cc1,11.8,-14.9%,12.6%,9.7%,11.2,-3.7%,-0.9
C/C(=N\NC(=S)NCc1ccccc1)c1ccc(C)o1,13.0,22.9%,-3.5%,13.5%,?,.,6.7
CC(=O)Nc1ccc(NC(=O)CSc2nnc(NC(=O)c3ccc(Br)o3)s2)cc1,-6.8,22.1%,-2.1%,4.4%,4.9,-29.6%,.
CC(=O)C[C@@H](O)CC(=O)[C@@H]1OC(=O)CCCCCc2ccccc21,3.4,.,6.9%,.,.,-0.8%,.
COc1ccc(/C=C/C(=O)Nc2cccnc2)cc1OC,21.0,28.9%[15.4 µM],-1.6%,7.6%,2.2,.,0.2
Cc1ccc2cc(/C=N/NC(=O)[C@H](C)NC(=O)OC(C)(C)C)c(Cl)nc2c1,-15.9,15.7%,6.1%,-5.0%,-2.9,-2.5%,12.1

# Exported with two lines to a compound: 3 of the compounds above.
# Order of results – TRPML1 blocker | gsp agonist | gsp antag | Sfp inh | TRPV1 potentiator | ClpP mod | Menin MLL FP FL
- CC(=O)Nc1ccc(NC(=O)CSc2nnc(NC(=O)c3ccc(Br)o3)s2)cc1
 : -6.8 | 22.1% | -2.1% | 4.4% | 4.9 | -29.6% | .
- CC(=O)C[C@@H](O)CC(=O)[C@@H]1OC(=O)CCCCCc2ccccc21
 : 3.4 | . | 6.9% | . | . | -0.8% | .
- COc1ccc(/C=C/C(=O)Nc2cccnc2)cc1OC
 : 21.0 | 28.9%[15.4 µM] | -1.6% | 7.6% | 2.2 | . | 0.2
